# Cruzain inh noDet = inhibitors of Trypanosoma cruzi cruzain without detergent; P25779; purified cruzain, Z-FR-AMC fluorescence, no detergent; Potency, µM, for the others: max response, negative = inhibition, usual class: inhibitors; 200,000 compounds, 2.3% hits; AID 1476; active means well fitted curve in the direction sought with a large enough effect; inconclusive means small, poorly fitted or top-dose-only effect, or another doubt; inactive means no such curve, though single readings can be large; an effect the other way counts as inactive or inconclusive;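 further: plate controls were enzyme without inhibitor for no effect and buffer without enzyme for full effect; nearly all actives have a fitted effect of over 40% in size; top concentration of the series not given in the record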
# Target sequence (P25779 123-467 limits assumed): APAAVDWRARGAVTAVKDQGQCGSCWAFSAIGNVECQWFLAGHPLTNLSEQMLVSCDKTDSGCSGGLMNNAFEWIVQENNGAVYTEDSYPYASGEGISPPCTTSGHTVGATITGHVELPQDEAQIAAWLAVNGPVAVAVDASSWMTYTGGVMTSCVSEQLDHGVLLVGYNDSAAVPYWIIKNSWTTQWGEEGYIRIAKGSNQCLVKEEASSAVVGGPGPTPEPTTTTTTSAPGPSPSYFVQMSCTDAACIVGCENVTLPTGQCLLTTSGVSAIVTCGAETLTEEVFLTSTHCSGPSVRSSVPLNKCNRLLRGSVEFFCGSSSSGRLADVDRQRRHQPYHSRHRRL
#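 Detergent-free condition (0.00005% Triton X-100) in acetate buffer pH 5.5 with DTT. 1.5 nM enzyme and compound were pre-mixed 15 min, then 2 uM Z-FR-AMC substrate added; reaction progress from fluorescence change between first and third reads (60 s).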
# Lassa entry inh = blocks Lassa virus binding to or entry into cells | Lassa virus pseudotype entry inhibition, cell reporter; control for the full effect not named in the record | Potency, µM (highest dose often 37.9 µM), without a hit: at the top dose activity change, negative = inhibition, most hits filed as inhibitors | 300,000 compounds, 1.2% hits | AID 540256; active means well fitted inhibition curve with a large enough effect; inconclusive means small, poorly fitted or top-dose-only effect, or effect the other way; inactive means flat fitted curve, though single readings scatter; tested in HEK293 cells; further: on the % scale 0 is the no-effect control and ±100 the full control effect; nearly all actives have a fitted effect of over 50% in size; luciferase read-out
# StopGo reporter = lowers the luciferase signal of an FMDV 2A StopGo reporter. 410,000 compounds, 1.2% hits. AID 1159524. Potency, µM (top dose mostly 57.9 µM), for inactives: at the top dose signal change, negative = less light. human cells with a luciferase reporter of 2A StopGo recoding; control for the full effect not named in the record; active = well fitted falling curve with a large enough effect; inconclusive = small, poorly fitted or top-dose-only effect; inactive = no such curve, though single readings can be large or run the other way; tested in HEK293T cells; further: on the % scale 0 is the no-effect control and ±100 the full control effect; nearly all actives have a fitted effect of over 45% in size; luciferase light after 4 h
# SARS PLpro yeast = inhibitors of SARS-CoV papain-like protease in yeast | 330,000 compounds, 0.19% hits | S. cerevisiae expressing SARS-CoV PLpro, growth rescue; control for the full effect not named in the record | Potency, µM (titrated, usually from 32.9 µM), inactives show at the top dose activity, positive = growth rescue; further: 0% is about no effect; nearly all actives have a fitted effect of over 55% in size; growth read by luminescence after 48 h
# Marburg entry inh = Marburg virus entry inhibition | 300,000 compounds, 1.8% hits | Potency, µM (top dose mostly 37.8 µM), for the others: at the highest dose activity change, negative = inhibition, hits mostly inhibitors | Marburg virus pseudotyped entry inhibition, cell reporter; control for the full effect not named in the record; about a third of the inactives were read at about 46 µM | AID 540276; active = well fitted inhibition curve with a large enough effect; inconclusive = small, poorly fitted or top-dose-only effect, or effect the other way; inactive = flat fitted curve, though single readings scatter; tested in HEK293 cells; about a fifth of its hits are not listed in these tables; further: on the % scale 0 is the no-effect control and ±100 the full control effect; luciferase read-out
# Cruzain Triton = blocks cruzain activity in presence of Triton detergent. P25779. AID 1478. purified cruzain, Z-FR-AMC fluorescence, 0.01% Triton. Potency, µM, for inactives: max response, negative = inhibition, actives largely listed as inhibitors. 200,000 compounds, 0.43% hits; active means well fitted curve in the direction sought with a large enough effect; inconclusive means small, poorly fitted or top-dose-only effect, or another doubt; inactive means no such curve, though single readings can be large; an effect the other way counts as inactive or inconclusive;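 further: plate controls were neutral wells for no effect and buffer without enzyme for full effect; nearly all actives have a fitted effect of over 40% in size; top concentration of the series not given in the record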
#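 Cysteine protease activity tested under reducing, mildly acidic conditions (100 mM sodium acetate pH 5.5, 5 mM DTT) plus 0.01% Triton X-100. Cruzain 1.5 nM; substrate Z-FR-AMC 2 uM; 15 min compound preincubation at room temperature.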
# NS1 function inh = blocks influenza NS1 protein function; S. cerevisiae slowed by influenza A NS1, growth recovery by OD600; Potency, µM (top dose mostly 46.1 µM), for the others: top-dose activity, positive = more growth; 270,000 compounds, 0.4% hits; further: actives are rising curves; nearly all actives have a fitted effect of over 50% in size
#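 Compounds were scored for reversing the slow growth caused by influenza A NS1 in S. cerevisiae, measured by optical density at 600 nm. Assay medium contained 2% galactose at pH 6.0; NS1-free yeast of the same strain were the positive control.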
# RE007 growth inh = less growth of the S. pombe RE007 Vpr strain; 360,000 compounds, 0.21% hits; Potency, µM (top dose mostly 92.2 µM), without a hit: top-dose activity change, negative = less growth; AID 651644; S. pombe RE007 Vpr strain, BacTiter-Glo ATP luminescence, 24 h; control for the full effect not named in the record; active = well fitted falling curve with a large enough effect; inconclusive = small, poorly fitted or top-dose-only effect; inactive = no such curve, though single readings can be large or run the other way;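 further: on the % scale 0 is the no-effect control and ±100 the full control effect; nearly all actives have a fitted effect of over 50% in size; the assay follows cell death caused by Vpr and the record does not say whether a fall means rescue or toxicity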
#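 Fission yeast RE007 carrying one integrated HIV-1 vpr copy, seeded at OD 0.01 in PMG+AL medium with 23 nL pinned compound. Grown 24 h at 30 degrees; viability read by BacTiter-Glo luminescence after 5 min.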
# Starred values were filed as active, the others as inactive; ? = inconclusive; . = no result given; [ ] = dose if it differs, or a comment. Unless noted, the call rests on the fitted dose curve; in most records, active means well fitted rising curve with a large enough effect; inconclusive means small, poorly fitted or top-dose-only effect; inactive means no such curve, though single readings can be large or run the other way. Potency means the concentration at half of the fitted maximal effect.
SMILES,Cruzain inh noDet,Lassa entry inh,StopGo reporter,SARS PLpro yeast,Marburg entry inh,Cruzain Triton,NS1 function inh,RE007 growth inh
O=C(CSc1ccc(-c2ccc(Br)cc2)nn1)NCC1CCCO1 (stereo unspecified),.,3.5%,-9.2%,-3.4%,-8.8%,.,10.8%,17.7%
COc1ccc(NC(=O)c2sc3nc(-c4cc5ccc(OC)cc5oc4=O)[nH]c(=O)c3c2C)cc1,4.1%,19.8%[46.1 µM],-0.7%,.,.,-1.7%,.,.
CNP1(NC)=NC(C(F)(F)F)=NC(C(F)(F)F)=N1,-4.9%,4.9%,.,-0.4%,-1.1%,2.7%,2.0%,1.0%
O=C(COC(=O)c1cc([N+](=O)[O-])ccc1N1CCOCC1)c1ccccc1,.,-14.8%[46.1 µM],0.1%,-0.3%,17.9%,.,.,?
O=C(/C=C/c1cccc(Br)c1)c1ccc2c(c1)OCO2,.,?,15.9%,-5.9%,-15.5%[46.1 µM],.,-4.6%,-18.2%
CCOc1ncccc1C(=O)N(CCC(C)C)c1c(N)n(Cc2ccccc2)c(=O)[nH]c1=O,.,-18.5%[46.1 µM],36.2%[activator],-0.6%,4.3%[46.1 µM],.,.,24.8%
O=S(=O)(Cc1nc2ccccc2s1)c1ccccc1,-5.8%,-12.1%,37.7%[activator],-2.1%,-3.5%,4.9%,-5.0%,1.6%
CC(C)(C)OC(=O)NCc1ccc(CNC(=O)c2[nH]cnc2C(=O)N[C@@H](Cc2ccccc2)C(=O)OCc2ccccc2)cc1,.,.,-5.9%,1.4%,.,.,?,8.4%
CCN(Cc1ccccc1)S(=O)(=O)c1c(C)n(C)c(=O)n(C)c1=O,.,4.1%,-18.9%,-0.5%,16.2%,.,.,0.8%
Cc1cc(C(=O)CN2C(=O)NC3(CCCc4ccccc43)C2=O)c(C)n1Cc1cccs1 (stereo unspecified),?,-2.2%,13.9%,5.5%,?,-3.2%,-38.9%,7.3%
CC(C)c1ccc2oc(=O)cc(CN3CCOCC3)c2c1,.,.,-10.5%,-2.4%,.,.,-12.7%,-15.1%
COc1ccc(CN2CCCC(CNC(=O)c3ccc(F)cc3)C2)cc1OC (stereo unspecified),.,0.3%[46.1 µM],-15.0%,0.8%,?,.,3.9%,1.0%
Cc1ccc(C2=NS(=O)(=O)N(C)C(C(=O)NCc3ccco3)=C2)cc1,.,.,-10.2%,0.2%,.,.,1.2%,15.4%
CCOc1ccc2nc(NCCCNS(=O)(=O)c3ccccc3)c(C#N)cc2c1,?,1.0%,?,4.1%,-27.4%,-7.8%,-31.2%,0.9%
CCOc1ccc(CNS(=O)(=O)c2c(C(=O)N3CCCCCC3)c(C)n(C)c2C)cc1OC,18.2%,-3.2%[46.1 µM],-5.2%,.,.,-0.9%,.,.
Cc1cccc(-n2c(SCC(=O)Nc3cccc(S(=O)(=O)NC4=NCCCCC4)c3)nc3ccccc3c2=O)c1C,4.5%,?,-11.9%,7.5%,-23.4%,-2.6%,22.4µM*,-10.1%
C/C(=C/C=C/[C@@H](C)C(=O)O)[C@H]1CN[C@H](C(=O)O)[C@H]1CC(=O)O,-4.0%,-11.7%,0.7%,-7.0%,-38.2%,0.4%,-3.7%,-13.6%
COc1ccc(CC(=O)NCCc2ccc(Cl)cc2Cl)cc1,.,?,-13.6%,-1.3%,23.8%[46.1 µM],.,.,13.4%
O=C(NCCc1c[nH]c2ccccc12)Nc1ccccc1,-5.5%,?,17.1%,4.4%,-6.5%,-3.0%,-1.2%,1.9%
CN(C)c1ccc(C=NNC(=O)c2cccc3ccccc23)c(Cl)c1,.,?,5.9%,.,-15.8%,.,.,11.5%
O=c1[nH]nc(CSCc2ccccc2Cl)[nH]1,-8.9%,6.0%,.,.,24.2%,0.7%,-9.6%,-0.3%
c1ccc(-c2nnc(CN3CCC4(CC3)OCCO4)o2)cc1,5.7%,14.2%,4.5%,1.4%,4.1%[46.1 µM],5.1%,1.4%,-20.7%
CCc1c(C)sc(NC(=O)CCc2ccc(OC)cc2)c1C(N)=O,0.6%,-3.2%,-8.2%,-4.2%,?,-1.4%,-0.1%,7.5%
CCC(=O)Nc1sc2c(c1C(=O)N(C)C)CCCCC2,-1.6%,0.0%,23.3%,8.2%,2.7%,-0.7%,6.6%,1.2%
NC(=O)NC(=O)C(c1ccccc1)N1CCN(S(=O)(=O)Cc2ccccc2)CC1 (stereo unspecified),.,-1.8%,-0.7%,-0.8%,0.0%,.,.,1.0%
Cc1cc(C)nc(N2CCC(C(=O)Nc3ccc4c(c3)OCO4)CC2)n1,-3.4%,0.9%,-14.5%,-0.2%,-13.7%,2.7%,-1.9%,-10.6%
COc1ccc(Br)c(C(=O)OCC(=O)N2CCC(Cc3ccccc3)CC2)c1,.,1.4%,0.0%,8.9%,-16.8%,.,.,6.1%
Cc1noc(C(=O)Nc2cccc(O)c2)c1Cl,.,-1.4%,9.8%,-4.8%,13.5%,.,-6.5%,28.3%
O=C(Cc1ccc(Br)cc1)N1CCCCCC1,-0.7%,-0.4%,46.5%[activator],-1.8%,2.8%[46.1 µM],7.6%,-6.6%,?
Cc1cccn2c(=O)cc(COc3ccc(NC(=O)C(C)C)cc3)nc12,11.5%,-5.1%[46.1 µM],-23.9%,.,.,1.9%,.,.
COc1ccc(-c2cc(C(F)(F)F)n3nc(C(=O)Nc4cccc(Cl)c4Cl)cc3n2)cc1OC,-6.1%,20.5%[46.1 µM],-11.1%,.,.,4.2%,.,.
CC(=O)N1CCc2cc(S(=O)(=O)NCCC3=CCCCC3)ccc21,.,-17.6%,3.3%,.,?,.,-46.9%,-1.1%
O=C(NC1CC2CCCC(C1)N2C(=O)Nc1ccccc1Cl)C1CC1 (stereo unspecified),.,1.3%[46.1 µM],-13.0%,8.6%,-3.0%[46.1 µM],.,26.7%,-6.3%
CCc1nn2c(=O)cc(COC(=O)Cc3ccccc3)nc2s1,-8.1%,13.9%[46.1 µM],-14.3%,.,.,-1.2%,.,.
CCC(=O)N1CCc2cc(S(=O)(=O)N(C)c3ccc(OC)cc3OC)ccc21,.,.,?,-1.6%,.,.,-4.1%,-4.4%
COCCC(=O)N1CCC(Oc2ccc(C(=O)N3CCCCCCC3)cc2)CC1,.,-12.4%[46.1 µM],10.7%,24.0%,-7.2%[46.1 µM],.,-7.0%,15.7%
Cc1nc2ccccc2nc1N/N=C/c1ccc(O)cc1O,.,?,-8.1%,-5.6%,?,.,-68.6%,-16.5%
Cc1cc(NC(=O)c2ccc(NC(=O)CCS(=O)(=O)c3cccs3)cc2)ccc1Br,?,?,?,.,?,-3.4%,.,.
COc1ccc2c(C)c(CC(=O)NCc3ccccc3Cl)c(=O)oc2c1OC,-15.1%,-1.6%[46.1 µM],2.7%,.,?,-2.9%,.,.
Cc1ccccc1Nc1nn2c(=O)c3ccc(C(=O)NCc4cccs4)cc3nc2s1,6.0%,?,-3.0%,.,.,-0.6%,.,.
CCOC(=O)N1CCN(CC(O)c2c[nH]c3ccccc23)CC1 (stereo unspecified),.,?,14.9%,1.1%,0.5%,.,1.7%,10.1%
CC1(C)CC[C@]2(C(=O)O)CC[C@]3(C)C(=CC[C@@H]4[C@@]5(C)CC[C@H](O)C(C)(C)[C@@H]5CC[C@]43C)[C@@H]2C1,.,.,-20.6%,-4.1%,.,.,-2.1%,5.0%
c1csc(CNc2nc(-c3cccs3)nc3ccccc23)c1,.,3.3%,-29.0%,-19.6%,-30.0%[46.1 µM],.,.,-14.7%
CCC(CC)C(=O)Nc1ccccc1NC(C)=O,-5.1%,-0.5%,3.8%,-0.3%,26.1%,3.7%,3.8%,5.6%
O=C(NCc1cc([N+](=O)[O-])ccc1O)c1cc(-c2ccncc2)nc2ccccc12,.,.,-19.2%,-0.1%,.,.,15.1%,9.7%
COc1ccccc1NC(=O)CSc1ccc2nnc(-c3cccnc3)n2n1,1.9%,.,-7.1%,27.5%,.,-5.2%,-12.1%,-9.2%
Cc1cc(C)n(CC(O)COc2c(C)cccc2C)n1 (stereo unspecified),.,.,2.5%,0.3%,.,.,-1.8%,1.0%
O=C(O)CCn1c(SCCOc2ccccc2)nc2ccccc21,.,.,16.3%,0.7%,.,.,-15.6%,-5.7%
CC1(C)Cc2ccccc2C(C(Cc2ccccc2)C(N)=O)=N1 (stereo unspecified),.,3.0%,-16.6%,-0.2%,6.0%[46.1 µM],.,-1.6%,-3.8%
CC(C)(C)C(=O)Nc1ccc2nc(SCc3ccccc3)sc2c1,-7.1%,2.6%[46.1 µM],-17.1%,.,16.6%[46.1 µM],-8.5%,.,.
O=C(NCc1ccc2c(c1)OCO2)C(=O)NCC1CCCO1 (stereo unspecified),.,2.1%,-7.6%,-1.8%,-3.4%[46.1 µM],.,.,-0.1%
COc1cccc(/C=N/NC(=O)c2c(-c3ccccc3)noc2C)c1,-5.4%,14.2%,-21.9%,4.9%,-19.6%,1.3%,-23.7%,-8.7%
CCc1ccc(N2CCn3c2nc2c3c(=O)n(CCc3ccccc3)c(=O)n2C)cc1,4.0%,-4.1%[46.1 µM],-3.3%,.,.,-8.3%,.,.
O=C(Nc1nccs1)c1csc2c1CCCC2,-5.6%,?,28.0%,-51.3%,?,-5.9%,-31.3%,?
O=C(NCc1ccccc1)C(c1ccco1)N(C(=O)c1csnn1)c1ccccc1 (stereo unspecified),.,-11.6%[46.1 µM],0.0%,0.8%,-14.7%[46.1 µM],.,13.1%,-9.6%
Cc1cc(=S)cc(C)n1CCCO,-3.6%,6.2%,16.9%,12.1%,34.2%,1.3%,7.9%,26.1%[3.69 µM]
Cc1nn(C(C)C(=O)NCc2ccccc2F)c(=O)c2nn(-c3ccccc3)c(C)c12 (stereo unspecified),.,.,-9.6%,-1.1%,.,.,8.6%,11.8%

# Source: PubChem BioAssay (National Center for Advancing Translational Sciences (NCATS))
